RecA splice inh = Mtb RecA intein splicing inhibition. cell-free RecA intein splicing, fluorescence. inhibition, %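 (about 9 µM by stock and volumes)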. 0.75% of 290,000 active. AID 2221; in the data active = inhibition above about 30%; inconclusive = no clear call, values can overlap the other calls;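 also: 0% = vehicle wells and 100% = reference inhibitor control wells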
Target sequence (P9WHJ3 whole entry, looked up, canonical isoform): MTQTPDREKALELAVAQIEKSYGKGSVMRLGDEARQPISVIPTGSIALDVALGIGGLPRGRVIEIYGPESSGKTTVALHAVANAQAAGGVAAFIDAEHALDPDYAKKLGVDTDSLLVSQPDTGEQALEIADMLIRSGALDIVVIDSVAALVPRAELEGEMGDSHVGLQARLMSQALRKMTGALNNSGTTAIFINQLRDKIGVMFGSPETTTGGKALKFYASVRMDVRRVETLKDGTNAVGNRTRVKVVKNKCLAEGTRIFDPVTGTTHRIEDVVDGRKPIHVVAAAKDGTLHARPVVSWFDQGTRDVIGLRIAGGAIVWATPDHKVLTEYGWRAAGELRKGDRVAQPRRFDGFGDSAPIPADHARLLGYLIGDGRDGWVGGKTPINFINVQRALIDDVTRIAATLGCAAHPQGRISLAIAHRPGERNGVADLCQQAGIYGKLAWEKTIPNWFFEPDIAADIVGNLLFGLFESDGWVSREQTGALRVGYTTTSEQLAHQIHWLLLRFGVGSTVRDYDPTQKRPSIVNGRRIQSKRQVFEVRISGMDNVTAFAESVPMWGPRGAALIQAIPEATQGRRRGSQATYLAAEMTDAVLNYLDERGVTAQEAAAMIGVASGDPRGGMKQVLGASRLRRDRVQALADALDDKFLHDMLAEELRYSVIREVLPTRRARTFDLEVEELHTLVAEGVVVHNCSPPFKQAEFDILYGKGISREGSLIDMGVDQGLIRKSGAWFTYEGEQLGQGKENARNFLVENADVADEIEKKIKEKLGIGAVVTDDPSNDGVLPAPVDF
Arbovirus anti = blocks arbovirus infection | 0.37% of 200,000 active | arbovirus infection cell-based antiviral screen | inhibition, % at 10 µM;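 active = inhibition from about 30%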;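 also: bluetongue infection of BSR cells; cell survival read as ATP light after 72 h; 0% = infected wells without compound and 100% = uninfected wells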
Mtb H37Rv = M. tuberculosis H37Rv growth inhibitors, H37Rv strain (AID 1626); M. tuberculosis H37Rv growth inhibition; higher % means a stronger effect; inhibition, % at 10 µM; hits with a dose series show IC50 in µM; 0.95% of 220,000 active;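 active = confirmed in a dose series; inconclusive = inhibition above 80% but not taken into the dose series; inactive = below 80% or under 30% at every dose of the series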;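 also: bacteria incubated seven days before Alamar blue readout; 0% = bacteria only wells and 100% = bacteria with antibiotic wells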
YopH inh = YopH (Yersinia) phosphatase inhibition. fluorescence Ex485/Em525. inhibition, %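 (about 10 µM by stock and volumes)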. 0.16% of 140,000 active;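 active = inhibition of 50% or more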;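 also: controls were vehicle for no effect and minimum signal wells for full effect; inactives centre near -20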
Mtb bLac sens = beta-lactam sensitization of Mtb H37Rv. M. tuberculosis H37Rv growth with meropenem, percent inhibition; hits of this screen are not shown here. inhibition, % at 25 µM. 0.27% of 330,000 active;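 active = about 74% or more and at least 40 points above the plate without the antibiotic, then above 30% in a dose series; inconclusive = first-round hits that could not be retested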;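 also: growth measured after seven days incubation then overnight dye step; 0% = bacteria only wells and 100% = bacteria with antibiotic; twin plates without the antibiotic show which effects depend on it; some results filed as inactive read as strong as hits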
Arbovirus anti repeat = also measured in Arbovirus anti; calls as there; inhibition, %; measured here: 10K subset replicate screen; many hits read low in the repeat;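 first of two repeat runs on a subset; 0% = infected and 100% = uninfected wells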
An asterisk follows results filed as active. This is a subset. The share of hits here may be higher or lower than overall.

Screening O=Cc1ccc(OCCOc2ccc([N+](=O)[O-])cc2)cc1 returned RecA splice inh -0.7 and Mtb bLac sens 6.
Screening Cc1cccc(Oc2nccc(C(F)(F)F)c2C(=O)Nc2ccc(F)cc2F)c1 returned RecA splice inh 0.0, Mtb H37Rv -2% and Mtb bLac sens 0.
For CCOC(=O)N1CCN(S(=O)(=O)c2ccc(NC(C)=O)cc2)CC1 the results were RecA splice inh -6.0 and Mtb bLac sens -4.
Screening COCCNC(=O)Cc1cn(C)c2ccccc12 returned RecA splice inh -0.1, Arbovirus anti 4, Mtb H37Rv 3%, YopH inh 4 and Mtb bLac sens 4.
C=CCNC(=O)C1(c2ccccc2)CC1(Cl)Cl (stereo unspecified) was read as RecA splice inh -0.1, Arbovirus anti -2, Mtb H37Rv 2%, YopH inh -17 and Mtb bLac sens 2.
`O=C(c1ccc2oc(CCc3ccccc3)nc2c1)N1CC[C@H](O)C1` gave RecA splice inh -0.1 and Mtb bLac sens 0.
`CCOc1ccc(NC(=O)Nc2cccnc2)cc1` gave RecA splice inh -0.5, Arbovirus anti -3, Mtb H37Rv 16% and Mtb bLac sens -4.
For CC(=O)c1ccc(NCC(=O)N2CCN(c3ccccc3)CC2)cc1 the results were Arbovirus anti 2, YopH inh -8 and Mtb bLac sens 47.
Screening CC1CC(NC(=O)C2C3CCC(O3)C2C(=O)O)CC(C)(C)C1 (stereo unspecified) returned RecA splice inh -3.0, Arbovirus anti -3, Mtb H37Rv 6%, YopH inh 8 and Mtb bLac sens 0.
O=C(CN1C(=O)CCS(=O)(=O)c2ccccc21)Nc1cccc(F)c1 was read as RecA splice inh -0.2, Arbovirus anti 1, Mtb H37Rv -13%, YopH inh -29 and Mtb bLac sens -5.
Screening Cc1c(NC(=O)c2ccc(=O)oc2)c(=O)n(-c2ccccc2)n1C returned RecA splice inh -3.6, Arbovirus anti -5, Mtb H37Rv -2%, YopH inh -21 and Mtb bLac sens -5.
For O=C(CCC(=O)Nc1ccccc1)N/N=C/C=C/c1ccccc1 the results were RecA splice inh 1.0, Arbovirus anti -2, Mtb H37Rv -3%, YopH inh -22 and Mtb bLac sens 0.
`N#Cc1ccccc1NC(=O)C1SC(=Nc2ccccc2)C(C(=O)Nc2ccc(Cl)cc2)=C1N` (stereo unspecified) gave RecA splice inh 1.6, Arbovirus anti -10, Mtb H37Rv 6% and Mtb bLac sens 50.
For COc1ccc(CNC(=O)C2(CC(=O)NC(C)(C)C)CCCC2)cc1 the results were RecA splice inh -1.0 and Mtb bLac sens 4.
O=C(NCCc1ccco1)C(=O)NCCC1CCCCN1S(=O)(=O)c1ccccc1 (stereo unspecified) was read as RecA splice inh -2.6 and Mtb bLac sens 0.
Screening CCOC(=O)c1c(NC(=O)CSc2nnc(C)o2)sc(C)c1C returned RecA splice inh 3.1, Mtb H37Rv -9% and Mtb bLac sens 65.
Cc1ccc(S(=O)(=O)NN=C2CCN(Cc3ccccc3)CC2)cc1 was read as RecA splice inh -2.3, Arbovirus anti 2, Mtb H37Rv -2%, YopH inh -43 and Mtb bLac sens 0.
CCO[C@H]1OC(C(=O)N2CCN(C)CC2)=C[C@@H](c2csc3ccccc23)[C@@H]1CCCO was read as RecA splice inh -2.8, Arbovirus anti 1, Mtb H37Rv 3% and Mtb bLac sens -6.
Screening CCOCC(=O)Nc1cccc(OC)c1 returned RecA splice inh -0.5, Arbovirus anti 1, Mtb H37Rv -10%, YopH inh 14 and Mtb bLac sens 95.
Screening CCOC(=O)CN1C(=O)S/C(=C\c2ccc(-c3ccc(C(=O)O)c(Cl)c3)o2)C1=O returned RecA splice inh -78 and Mtb bLac sens -5.

An excerpt from above in order of formula weight, smallest number first:
`CCOc1ccc(NC(=O)Nc2cccnc2)cc1` gave RecA splice inh -0.5, Arbovirus anti -3, Mtb H37Rv 16% and Mtb bLac sens -4.
C=CCNC(=O)C1(c2ccccc2)CC1(Cl)Cl (stereo unspecified) was read as RecA splice inh -0.1, Arbovirus anti -2, Mtb H37Rv 2%, YopH inh -17 and Mtb bLac sens 2.
Screening Cc1c(NC(=O)c2ccc(=O)oc2)c(=O)n(-c2ccccc2)n1C returned RecA splice inh -3.6, Arbovirus anti -5, Mtb H37Rv -2%, YopH inh -21 and Mtb bLac sens -5.
For CC(=O)c1ccc(NCC(=O)N2CCN(c3ccccc3)CC2)cc1 the results were Arbovirus anti 2, YopH inh -8 and Mtb bLac sens 47.
Screening CCOC(=O)c1c(NC(=O)CSc2nnc(C)o2)sc(C)c1C returned RecA splice inh 3.1, Mtb H37Rv -9% and Mtb bLac sens 65.
Screening CCOC(=O)CN1C(=O)S/C(=C\c2ccc(-c3ccc(C(=O)O)c(Cl)c3)o2)C1=O returned RecA splice inh -78 and Mtb bLac sens -5.

Additional records.
Screening c1ccc(-n2cnc3cc(NCc4cccs4)ccc32)cc1 returned RecA splice inh 9.1, Arbovirus anti -8, Mtb H37Rv -3%, YopH inh -3 and Mtb bLac sens 99.
For O=[N+]([O-])c1cccc(C2CC(c3ccccc3)=NN2c2ccccc2)c1 (stereo unspecified) the results were RecA splice inh 7.3 and Mtb bLac sens 9.
`Cc1ccc(S(=O)(=O)N2CCCN(c3nc4cc(C)ccc4cc3C#N)CC2)cc1` gave RecA splice inh -1.9, Arbovirus anti -9, Mtb H37Rv 5%, YopH inh -9 and Mtb bLac sens -3.
COc1ccccc1/C=N/Nc1cc(N(C)C)nc(N(C)C)n1 was read as RecA splice inh 44*, Arbovirus anti 9, Mtb H37Rv 1% and Mtb bLac sens 8.
Screening NC(=O)CNC1CC(=O)N(CCc2ccccc2)C1=O (stereo unspecified) returned RecA splice inh -2.0, Arbovirus anti 9, Mtb H37Rv -5%, YopH inh -25, Mtb bLac sens -10 and Arbovirus anti repeat -3.
O=C(NC1CCCc2ccccc21)c1ccc(Br)cc1 (stereo unspecified) was read as RecA splice inh -0.8, Arbovirus anti 6, Mtb H37Rv 9%, YopH inh -31 and Mtb bLac sens 3.
CC(=O)c1ccc(OCCCC(=O)Nc2cccc(S(=O)(=O)N(C)C)c2)cc1 was read as RecA splice inh 1.8, Arbovirus anti 1, Mtb H37Rv 0%, YopH inh -22 and Mtb bLac sens 1.
Screening CNS(=O)(=O)c1ccc(NC(=O)c2ccc(Cl)cc2Cl)cc1 returned RecA splice inh -3.2, Arbovirus anti -17, Mtb H37Rv 4%, YopH inh -5 and Mtb bLac sens 0.
Screening COC(=O)c1ccc(/C=C2/SC(=S)N(CCC(=O)NCCCN3CCOCC3)C2=O)cc1 returned RecA splice inh -1.6 and Mtb bLac sens -7.
For Cc1cc(NC(=O)CSCC(=O)Nc2nc3c(C)cccc3s2)no1 the results were RecA splice inh -1.1 and Mtb bLac sens -8.
Screening COCC(=O)Nc1cc(=O)n(C)c(=O)n1C returned RecA splice inh 0.5, Arbovirus anti 3, Mtb H37Rv 3%, YopH inh -30, Mtb bLac sens -5 and Arbovirus anti repeat 0.
For O=S(=O)(NCCSc1ccccn1)c1ccc(Br)cc1 the results were RecA splice inh 0.6, Arbovirus anti 4, Mtb H37Rv 9% and Mtb bLac sens 8.
For Cc1ccc(S(=O)(=O)CCc2nnc(NC(=O)c3cccs3)s2)cc1 the results were RecA splice inh -1.2, Arbovirus anti -2, Mtb H37Rv -5%, YopH inh -27 and Mtb bLac sens 3.
Screening COc1cccc(NC(=O)N2CCCC2)c1 returned RecA splice inh 4.5, Arbovirus anti 8, Mtb H37Rv 4% and Mtb bLac sens 2.
Screening Cc1ccc(C(=O)NCc2ccco2)cc1S(=O)(=O)N1CCCCC1 returned RecA splice inh 3.9, Arbovirus anti 7, Mtb H37Rv -2%, YopH inh -32, Mtb bLac sens -6 and Arbovirus anti repeat 3.
Screening CCN(CC(=O)Nc1c(F)cccc1F)C(=O)/C=C/c1ccc(C)o1 returned RecA splice inh 0.1 and Mtb bLac sens 3.
CNS(=O)(=O)c1c(C)cc(C)c(N(C)S(=O)(=O)c2ccccc2)c1C was read as RecA splice inh 6.4, Arbovirus anti 2, Mtb H37Rv -4% and Mtb bLac sens 1.
Screening CCOc1nc(NC(=O)NS(=O)(=O)c2ccccc2F)nc(-c2ccccc2)n1 returned Arbovirus anti -4 and Mtb H37Rv -3%.
For Cc1cc([P+](=O)O)c(C)n1-c1ccc(Br)cc1 the results were RecA splice inh 2.0, Arbovirus anti 1, Mtb H37Rv -8%, YopH inh -44 and Mtb bLac sens 7.
`O=C(CN(C(=O)C1CSC(=O)C1)c1ccc(F)cc1)NCc1ccc2c(c1)OCO2` (stereo unspecified) gave RecA splice inh -0.3 and Mtb bLac sens -2.
`Cn1cc2ccc([N+](=O)[O-])cc2n1` gave RecA splice inh 6.6, Mtb H37Rv -3% and Mtb bLac sens 3.
Cc1ccc(N/C(SCc2ccccc2C)=C(/C#N)C(=O)NCc2ccco2)cc1C was read as RecA splice inh 9.7, Arbovirus anti 14, Mtb H37Rv 14%, YopH inh 9 and Mtb bLac sens 9.
Screening CC1CN=C(NC(C)c2ccccc2)S1 (stereo unspecified) returned RecA splice inh 2.6, Arbovirus anti 7, Mtb H37Rv -3% and Mtb bLac sens -5.
`CCc1cc(C(=O)c2ccc(OC)cc2)c(N)s1` gave RecA splice inh 0.9 and Mtb bLac sens 0.
`CN(C)CCSCc1nnc2n1-c1ccc(Cl)cc1C(c1ccccc1Cl)=NC2` gave RecA splice inh 5.5 and Mtb bLac sens 0.
Screening CCc1nc(NC(=O)c2sc(C)nc2C)sc1C(=O)OC returned RecA splice inh 1.7 and Mtb bLac sens inconclusive.
Screening COc1ccc(C2NC(c3ccc(OC)cc3)C(c3ccccc3)C(=O)C2c2ccccc2)cc1 (stereo unspecified) returned RecA splice inh 5.1, Arbovirus anti -5, Mtb H37Rv -24%, YopH inh -20 and Mtb bLac sens 2.
For Cc1ccc(N(CC(=O)Nc2c(C)n(C)n(-c3ccccc3)c2=O)S(C)(=O)=O)cc1C the results were RecA splice inh -1.1, Arbovirus anti 0, Mtb H37Rv 5%, YopH inh -3 and Mtb bLac sens 5.
O=c1c(C(c2ccccc2)c2c(O)sc3ccccc3c2=O)c(O)sc2ccccc12 was read as RecA splice inh 29*, Arbovirus anti 15, YopH inh 4 and Mtb bLac sens 4.
NS(=O)(=O)c1ccc(CNC(=O)Cc2ccccc2F)cc1 was read as RecA splice inh -10, Arbovirus anti 7, Mtb H37Rv 6% and Mtb bLac sens 5.
`O=C1CC(c2ccc(Cl)cc2)CC(=O)C1CS(=O)(=O)c1ccccc1` (stereo unspecified) gave RecA splice inh 2.5, Arbovirus anti 11, Mtb H37Rv 10% and Mtb bLac sens -1.
For COc1ccc(-c2nnc(NC(=O)c3cc(C)on3)s2)cc1 the results were RecA splice inh 0.1, Arbovirus anti 1, Mtb H37Rv 54%, YopH inh -24 and Mtb bLac sens 96.
Screening O=C(Oc1ccccc1C(=O)Oc1ccccc1)c1cccnc1 returned RecA splice inh 5.7, Arbovirus anti 14, Mtb H37Rv 14% and Mtb bLac sens 52.
`CCOC(=O)N1CCN(C(=O)CC(=O)Nc2ccc3nc4n(c(=O)c3c2)CCCCC4)CC1` gave RecA splice inh -0.7, Arbovirus anti 11, Mtb H37Rv -5%, YopH inh -21 and Mtb bLac sens -8.
For CCOC(=O)C1=C(C)Nc2ccccc2N=C1NC(=O)C(CC)c1ccccc1 (stereo unspecified) the results were RecA splice inh -0.5, Arbovirus anti -10, Mtb H37Rv 1%, YopH inh -21 and Mtb bLac sens -5.
Screening Cn1c(SCC(=O)Nc2ccc3c(c2)OCCO3)nnc1-c1cccnc1 returned RecA splice inh -2.1 and Mtb bLac sens -16.
Screening COc1cccc(-c2cc(C(=O)Nc3c(C)n(C)n(-c4ccccc4)c3=O)no2)c1 returned RecA splice inh -1.7, Arbovirus anti -3, Mtb H37Rv 2%, YopH inh -21 and Mtb bLac sens 1.
Screening O=C(CCN1C(=O)c2ccccc2C1=O)OCn1nnc2ccccc2c1=O returned RecA splice inh -3.6, Arbovirus anti 11, Mtb H37Rv -13%, YopH inh -35, Mtb bLac sens 1 and Arbovirus anti repeat 3.
O=C(CCC(=O)N(CC(=O)NC1CCCC1)Cc1ccccc1)Nc1nccs1 was read as RecA splice inh -1.6 and Mtb bLac sens 1.
Screening Cc1ccoc1C(=O)Nc1cccc2ccccc12 returned RecA splice inh 3.8 and Mtb bLac sens 7.
Screening CC(C)(C)OC(=O)N1CCC(c2c(C(=O)O)cnn2-c2ccccc2Cl)CC1 returned RecA splice inh -2.3, Arbovirus anti 7, Mtb H37Rv -4%, YopH inh -55 and Mtb bLac sens -10.
Screening CCCCN(C(=O)CCC(=O)Nc1cc(C)on1)C(C(=O)NC1CCCC1)c1ccc(F)cc1 (stereo unspecified) returned RecA splice inh -0.5 and Mtb bLac sens -1.
